From PubChem
E coli growth – E. coli growth inhibition. AID 1053175. Escherichia coli growth, OD600, 23 h; stronger effect = lower value. OD600 absorbance (no concentration beside the values). 330,000 tested, 0.21% active;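 active = OD600 absorbance below the run mean of sample wells minus 3.6 SD, in any replicate, cut at about 0.56 in these data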;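 note: stock transfer was 300 nL into about 60 µL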
FGF22 binding – shifts melting point of recombinant human FGF22 | recombinant FGF22 thermal shift, SYPRO orange fluorescence; percent of sucrose octasulfate shift, DMSO zero | calls only at 9.99 µM | 340,000 tested, 1.5% active | Q9HCT0;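 active = melting point raised past a set limit in the mean and every replicate; three in four hits are not shown here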
Target sequence (Q9HCT0 whole entry, looked up): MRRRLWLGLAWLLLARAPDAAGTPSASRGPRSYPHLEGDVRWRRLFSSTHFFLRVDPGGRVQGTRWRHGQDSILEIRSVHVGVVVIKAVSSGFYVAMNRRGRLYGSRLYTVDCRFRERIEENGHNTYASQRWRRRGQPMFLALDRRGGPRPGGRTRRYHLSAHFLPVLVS
UCH37 DUB inh – inhibitors of human deubiquitinating enzyme UCH37. Q9Y5K5. purified proteasome/UCH37, Ub-AMC cleavage fluorescence. inhibition, % (no concentration beside the values). 330,000 tested, 0.33% active;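 active = mean of two replicates above 20%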;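 note: 0% = compound-free wells with enzyme and 100% = wells lacking proteasome; stock transfer was 100 nL into about 20 µL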
Target sequence (Q9Y5K5 whole entry, looked up): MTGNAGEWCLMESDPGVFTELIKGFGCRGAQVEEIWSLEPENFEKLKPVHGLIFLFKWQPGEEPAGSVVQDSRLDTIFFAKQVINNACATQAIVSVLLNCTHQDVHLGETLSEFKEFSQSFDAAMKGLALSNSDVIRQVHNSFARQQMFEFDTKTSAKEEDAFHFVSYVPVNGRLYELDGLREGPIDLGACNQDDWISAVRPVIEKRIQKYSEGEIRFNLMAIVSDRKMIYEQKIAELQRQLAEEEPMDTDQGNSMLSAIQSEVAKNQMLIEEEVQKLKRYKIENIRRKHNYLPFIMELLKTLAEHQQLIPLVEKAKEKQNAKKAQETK
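Material: Human UCH37 enzyme supplied as purified proteasome complex | Schedule: 30 min compound-proteasome preincubation then 25 min substrate reaction, room temperature | Detection: AMC fluorescence from Ub-AMC cleavage, excitation 355 nm, emission 460 nm | Benchmarks: Wells without proteasome as full block, compound-free enzyme plus substrate as uninhibited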
LANA-H2A inh – blocks KSHV LANA binding to histone H2A/H2B. AID 2629. inhibition, % (no concentration beside the values). cell-free LANA-H2A/H2B peptide, fluorescence polarization. 320,000 tested, 0.6% active. Q9QR71; in the data active = inhibition mostly above about 10%, no sharp cut-off; inactive = mostly below about 6.7%;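 note: stock transfer was 7.5 nL into about 10 µL; 0% = median of vehicle wells and 100% = median of positive control wells; one replicate is shown; the record names a cut of 25% in any replicate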
Beta2AR agonist – activates human beta-2 adrenergic receptor causing internalization; response, % (no concentration beside the values); 340,000 tested, 0.43% active; Am2.2-beta2AR cells, FAP receptor internalization, flow cytometry; reference of the scale not given here; P07550;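 active = response above a set limit, near 3 SD of response in nonfluorescent compounds, cut at about 42% in these data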;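 note: stock transfer was 100 nL into about 11 µL; a reference agonist was the positive control; negative values mostly stem from fluorescent compounds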
ALR H2O2 inh – blocks human ALR sulfhydryl oxidase activity | purified ALR, DTT oxidation, H2O2 HRP-luminol luminescence | inhibition, % (no concentration beside the values) | AID 485317 | 290,000 tested, 3.8% active | P55789;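 active = mean and each replicate at 75% or more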;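 note: stock transfer was 7.5 nL into about 7.5 µL; 0% = neutral wells and 100% = wells with inactivated enzyme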
Target sequence (P55789 whole entry, looked up): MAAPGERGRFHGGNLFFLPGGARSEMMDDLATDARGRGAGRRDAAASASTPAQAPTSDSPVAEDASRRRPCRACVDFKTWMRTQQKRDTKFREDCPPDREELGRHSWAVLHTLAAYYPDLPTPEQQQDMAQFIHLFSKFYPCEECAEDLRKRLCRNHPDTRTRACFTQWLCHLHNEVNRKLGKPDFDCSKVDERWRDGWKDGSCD
HNF4A DNA FP – change in binding of human HNF4 alpha to DNA; P41235; HNF4a-FITC DNA binding, fluorescence polarization, 1 h; activity change, % at 10 µM; 360,000 tested, 0.3% active; in the data active = activity change above about 30%, passing the limit was not always enough;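 note: controls were the assay level and a saturating level of protein; the project sought stronger binding though the title names inhibitors; some compounds called inactive have numbers as strong as hits; positive values seem to mean higher polarization but the record does not say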
* marks the source's active call; other numbers are inactive results; i = inactive; . = not tested or not shown. Only part of the results is shown; count on the stated rates, not on these rows.

SMILES | E coli growth | FGF22 binding | UCH37 DUB inh | LANA-H2A inh | Beta2AR agonist | ALR H2O2 inh | HNF4A DNA FP
O=C(CC(NC(=O)c1ccccc1)c1ccccc1)NCc1ccccc1 (centres undefined) | 0.69 | i | 1.2 | -9.1 | -4 | 5 | 0.8
Fc1ccc(-c2cc3nc(-c4ccccc4)cc(N4CCN(CCN5CCOCC5)CC4)n3n2)cc1 | 0.65 | . | -247 | . | 1 | . | 5.1
c1cncc(-c2csc(-c3cccnc3)n2)c1 | 0.65 | i | 3.6 | -3.6 | -9 | -3 | -2.3
CCC(C(=O)NC(C)(C)C)N(C(=O)Cn1nnc(-c2ccccc2F)n1)c1cccc2c1CCCC2 (centres undefined) | 0.71 | . | 0.6 | -2.8 | 8 | -2 | 0.4
NN=C1c2ccccc2-c2ccc(N)cc21 | 0.57 | i | 4.6 | . | 8 | . | 0.3
O=C(O)CN1C(=O)NC2NC(=O)NC21 (centres undefined) | 0.7 | i | 1.4 | 1.3 | 6 | 3 | 1.5
CCN(CC(=O)Nc1ccccc1OC)C(=O)COc1ccc2ccccc2c1 | 0.66 | . | -0.3 | 4.2 | 6 | -45 | -0.1
C[N+](C)(C)CCOC(=O)CCC(=O)OCC[N+](C)(C)C | 0.68 | i | 2.1 | 2.3 | 4 | -6 | 4.1
COc1ccc(N2CCN(C(=O)COc3ccc(Cl)cc3Cl)CC2)cc1 | 0.7 | . | 2.5 | -4.2 | -4 | 2 | 3.3
CCOc1ccc(C2C(C(=O)c3ccc(C)o3)=C(O)C(=O)N2c2cc(C)on2)cc1OC (centres undefined) | 0.66 | i | 8.9 | 1.0 | 1 | 3 | 3.0
CC(=O)c1cccc(N=Cc2c(O)ccc3ccccc23)c1 | 0.62 | i | 4.8 | 0.1 | -1 | -35 | 3.9
CC(=O)N1N=C(c2ccco2)CC1c1ccc(Br)cc1 (centres undefined) | 0.7 | i | -2.8 | 5.4 | 13 | 17 | -1.1
Cc1nnc(SCC(=O)N(C(C)C)C(C)C)nc1C | 0.7 | . | 33* | 1.8 | 0 | -8 | 3.2
CCOP(=O)(OCC)C(NC(=O)Nc1ccc(Cl)cc1)C(N)=O (centres undefined) | 0.63 | . | 0.1 | 0.7 | -1 | -22 | 2.3
COc1ccc(/C(C)=N/Nc2nccnc2Cl)cc1 | . | i | . | 0.2 | 8 | . | -0.1
CCN(CC)CCNC(=O)C1c2ccccc2C(=O)N(CCOC)C1c1ccc(F)cc1 (centres undefined) | 0.68 | . | 1.6 | 1.0 | -6 | -18 | -1.9
COC(=O)c1ccc(C(NC(=O)c2cccnc2)NC(=O)c2cccnc2)cc1 | 0.67 | i | -0.6 | 2.2 | -3 | -5 | -2.2
C[C@@H]1CN([C@@H](C)CO)C(=O)c2cc(NC(=O)CCN3CCOCC3)ccc2O[C@@H]1CN(C)C(=O)Nc1ccccc1 | . | i | -1.8 | 14 | -2 | -1 | -2.5
COC(=O)Nc1c(-c2ccccc2)nc2ccc(C)cn12 | 0.74 | . | -63 | -2.9 | -7 | 50 | 1.9
O=C(N/N=C/c1cccnc1)c1sc2ccccc2c1Cl | . | i | . | 1.1 | 9 | -4 | 0.4
Cc1ccc2c(c1)N(C)/C(=C/c1cccc[n+]1C)S2 | 0.53* | i | 9.0 | -96 | -202 | 97* | 0.7
CCCC1=C(C(=O)OCC)C(c2cccs2)n2ncnc2N1 (centres undefined) | 0.62 | i | 1.0 | -5.0 | -6 | -12 | -1.9
CCCCn1c(NC(=O)c2ccco2)c(S(=O)(=O)c2ccc(C)cc2)c2nc3ccccc3nc21 | 0.69 | i | -206 | . | 5 | . | 68*
Cc1ccc(NC(=O)N/C=C/c2ccc(Cl)cc2)cc1 | 0.75 | . | 3.7 | 2.9 | 6 | -2 | 4.7
O=C1c2cccc3cccc(c23)C(=O)N1CCCSc1ncn[nH]1 | 0.71 | i | 1.2 | 2.0 | 1 | 1 | -2.8
CNCCNC[C@H](Cc1cccc2ccccc12)NCCc1ccccc1 | . | i | 4.0 | 2.7 | 10 | -4 | 2.3
Cc1cc(/C=N/NC(=O)c2ccc(CN3CCOCC3)cc2)c(C)n1-c1ccccc1 | . | . | . | 1.8 | 4 | 18 | 3.6
C[C@H](CO)N1C[C@H](C)[C@@H](CN(C)C(=O)Nc2ccc3c(c2)OCO3)Oc2ccc(NC(=O)Nc3ccc4c(c3)OCO4)cc2C1=O | 0.68 | i | 0.3 | . | 0 | -6 | -1.0
O/N=C1\CCCc2ccc(Cl)cc21 | . | i | . | -0.8 | 0 | -5 | 3.9
Cc1ccc(NC(=O)CCc2c(C)[nH]c(=O)c(C#N)c2C)cc1 | 0.69 | i | 0.8 | 2.3 | -3 | -1 | -4.1
Cn1c(N)c(C(=O)COC(=O)CSc2ccc(Cl)cc2)c(=O)n(C)c1=O | 0.69 | . | 2.5 | -4.2 | 2 | 10 | -5.3
Brc1ccc(Nc2c3c(nc4ncnn24)CCC3)cc1 | 0.69 | . | 2.4 | 0.5 | -13 | 2 | -1.9
CC(=O)c1ccc(NC(=O)CSc2nc(C3CC3)nc3ccccc23)cc1 | 0.66 | i | 3.4 | -0.6 | -12 | 43 | -2.1
Cc1c([N+](=O)[O-])c(N)nn1C | 0.63 | i | 1.5 | -6.6 | -2 | -1 | 1.9
COc1ccc(Nc2nc(C)cc(C)c2C(N)=O)cc1OC | . | i | . | -2.8 | 1 | 64 | 1.6
Cc1cc(/C=C(\C#N)C(=O)NCc2ccco2)c(C)n1-c1cccnc1 | 0.69 | i | 12 | 2.0 | 0 | -8 | -0.3
O=C(CNc1ccccc1Cl)N/N=C1\CCCc2ccccc21 | . | i | . | -4.1 | 6 | -28 | -2.6
Cc1cc(Nc2ccc3ccccc3c2)n2ncnc2n1 | 0.68 | . | -6.0 | 0.8 | 9 | -18 | -2.6
O=C1c2cccc3cccc(c23)C(=O)N1CC1CCN(S(=O)(=O)c2ccccc2)CC1 | 0.7 | i | 0.7 | . | -7 | . | 0.2
COc1ccc(S(=O)(=O)N(C)CC(=O)Nc2ccc(F)cc2)cc1 | 0.68 | i | 2.5 | -3.1 | 3 | 2 | -1.2
Cc1ccc(CN2CCC(CNS(=O)(=O)c3ccc(-c4ccc(=O)[nH]n4)s3)CC2)cc1 | 0.6 | i | 1.6 | 1.2 | 3 | 5 | 0.4
O=C(CNC(=O)c1cc(=O)[nH]c2ccc(S(=O)(=O)N3CCOCC3)cc12)Nc1ccc(F)c(F)c1 | 0.69 | i | -1.8 | . | -2 | . | 2.5
Cc1ccccc1CSCc1ccc(C(=O)NCCCN2CCOCC2)o1 | 0.7 | i | 4.0 | 5.6 | -3 | 98* | 1.4
CCN(CC)S(=O)(=O)c1ccc(C(=O)OCCNC(=O)c2cccnc2)cc1 | 0.72 | . | 3.4 | -0.2 | 2 | -6 | 1.4
CCC(C)c1c(O)nc(SCC(=O)N2CCCCC2)[nH]c1=O (centres undefined) | 0.64 | i | 5.7 | -3.1 | 0 | 11 | 2.1
COc1ccc(OC)c(/C=C2\Oc3cc(OCC(=O)N4CC(O)C[C@H]4C(=O)O)ccc3C2=O)c1 (some centres undefined) | 0.71 | i | 14 | -1.3 | 9 | . | -0.4
CC(NC(=O)CSc1ncccn1)c1ccc(Cl)cc1Cl (centres undefined) | 0.72 | i | 3.6 | -5.5 | -2 | -1 | 5.5
COc1cccc(C(=O)Nc2nc(-c3ccccc3)c(-c3ccccc3)o2)c1 | 0.72 | i | -1.7 | 0.7 | 4 | 0 | -0.8
CCCCN(C(=O)Cc1ccc2c(c1)OCCO2)c1c(N)n(CC(C)C)c(=O)[nH]c1=O | 0.68 | i | 2.4 | . | 3 | . | -3.3
COc1ccc(-c2cc3ncc(-c4ccccc4)c(N)n3n2)cc1 | 0.7 | i | -3.0 | . | 7 | . | 5.6
O=C(NCCCN1CCOCC1)c1ccc(Sc2ccc(Br)cc2)c([N+](=O)[O-])c1 | 0.64 | . | 1.5 | -2.6 | -34 | -1 | -3.0
CCOC(=O)c1nc(NCc2ccccc2F)c2ccccc2n1 | 0.7 | i | 1.0 | 0.7 | 8 | 5 | 3.9
C(=N\Nc1nc2ccccc2[nH]1)/c1ccccc1 | . | . | . | 2.3 | -6 | . | 0.8
CC(C)N1CCc2c(sc(NC(=O)c3ccc(C(=O)c4ccccc4)cc3)c2C(N)=O)C1 | . | i | . | -4.1 | -6 | 17 | 7.0
N#CCc1c(C#N)c(N)nc(N2CCCC2)c1C#N | 0.67 | i | -1.6 | 0.2 | -11 | 7 | 6.2
C=C(C)c1cccc(C(C)(C)NC(=O)Nc2ccc(C)cn2)c1 | 0.62 | i | 3.8 | . | -4 | . | 0.6
Cc1ccc(-n2cc(CN3CCN(Cc4nccn4C)CC3)c(-c3ccc(F)cc3)n2)cc1 | 0.69 | i | 2.8 | -3.6 | 8 | -6 | 0.5
CCOc1ccc(S(=O)(=O)Nc2ccc(C(=O)N/N=C(\C)c3ccc(-n4ccnc4)cc3)cc2)cc1 | . | . | . | 1.7 | -2 | . | 3.0
CC1CC(C)(C)CC2(C1)NC(=O)N(CC(=O)NCC(c1ccco1)N1CCCCC1)C2=O (centres undefined) | 0.76 | . | -1.9 | 1.3 | -1 | -8 | -0.9
C[C@H](C(=O)O)c1n[nH]c(=O)c2ccccc12 | 0.64 | . | 1.2 | 1.2 | -4 | . | -3.2

HNF4A DNA FP, hit marks shown above.
smiles | FGF22 binding | UCH37 DUB inh | LANA-H2A inh | Beta2AR agonist | ALR H2O2 inh | HNF4A DNA FP
CCCCn1c(NC(=O)c2ccco2)c(S(=O)(=O)c2ccc(C)cc2)c2nc3ccccc3nc21 | i | -206 | . | 5 | . | 68*

(cont.)
SMILES | E coli growth | FGF22 binding | UCH37 DUB inh | LANA-H2A inh | Beta2AR agonist | ALR H2O2 inh | HNF4A DNA FP
CCCc1cc(=O)n2[nH]c(NC(=O)c3ccco3)nc2n1 | 0.69 | i | 6.3 | 1.6 | -1 | 74 | 3.1
Cc1ccc2c(COC(=O)C34CC5CC(CC(C5)C3)C4)cc(=O)oc2c1 | 0.73 | . | 2.1 | -3.2 | -10 | -1 | -1.5
COc1ccc(NC(=O)CSc2nc(-c3ccncc3)nn2CC(=O)N2CCCC2)cc1 | 0.73 | . | 2.6 | 1.1 | -2 | -16 | 3.1
Cc1ccc(-c2csc3nnc(SCC(=O)Nc4cccc(C)n4)n23)cc1 | 0.65 | . | 4.2 | -1.2 | -2 | -3 | 5.2
COc1cccc(NC(=O)CN(c2ccc(C)cc2)S(=O)(=O)c2c(C)nn(C)c2C)c1 | 0.69 | . | 3.3 | -2.2 | 11 | -7 | 2.6
NC(=O)CC(NC(=O)c1ccc(Br)cc1)c1ccc(N2CCN(c3ccccn3)CC2)c([N+](=O)[O-])c1 (centres undefined) | 0.67 | i | 1.5 | 1.0 | 98* | 0 | -3.6
C=CCNc1nc(-c2sc(NC(=O)CC)nc2C)cs1 | 0.66 | . | -1.8 | 16 | 2 | 25 | 3.2
Cn1cnc(C(=O)N2CCN(c3ccccc3)CC2)c1C(=O)N1CCN(c2ccccc2)CC1 | 0.69 | i | 1.4 | -3.0 | -1 | 54 | -4.7
Cc1ccc(NC(=O)c2cccs2)cc1S(=O)(=O)Nc1cccc(Cl)c1 | 0.67 | i | 2.1 | 4.8 | -2 | 1 | 4.0

Quoted at random: 4 records from the list, in no set order.
SMILES | E coli growth | FGF22 binding | UCH37 DUB inh | LANA-H2A inh | Beta2AR agonist | ALR H2O2 inh | HNF4A DNA FP
CCOc1ccc(C2C(C(=O)c3ccc(C)o3)=C(O)C(=O)N2c2cc(C)on2)cc1OC (centres undefined) | 0.66 | i | 8.9 | 1.0 | 1 | 3 | 3.0
CCCC1=C(C(=O)OCC)C(c2cccs2)n2ncnc2N1 (centres undefined) | 0.62 | i | 1.0 | -5.0 | -6 | -12 | -1.9
Cc1cc(/C=C(\C#N)C(=O)NCc2ccco2)c(C)n1-c1cccnc1 | 0.69 | i | 12 | 2.0 | 0 | -8 | -0.3
COc1ccc(S(=O)(=O)N(C)CC(=O)Nc2ccc(F)cc2)cc1 | 0.68 | i | 2.5 | -3.1 | 3 | 2 | -1.2
